From PubChem BioAssay
LANA-H2A inh: blocks KSHV LANA binding to histone H2A/H2B | Q9QR71 | cell-free LANA-H2A/H2B peptide, fluorescence polarization | inhibition, % (test concentration not listed) | actives 0.6% (n = 320,000); in the data active = inhibition mostly above about 10%, no sharp cut-off; inactive = mostly below about 6.7%;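 also: stock transfer was 7.5 nL into about 10 µL; 0% = median of vehicle wells and 100% = median of positive control wells; one replicate is shown; the record names a cut of 25% in any replicate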
rRNA inh HTS: selective bacterial rRNA inhibition in E. coli. E. coli WT GFP vs humanized-ribosome RFP mutants, fluorescence, 24 h; active compounds read low; DMSO median 0, no signal -100. GFP signal change (wild-type ribosome), % (concentration not given with the values). actives 1.6% (n = 350,000). AID 720706;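 active = significant combined selectivity score with lowered wild-type GFP, culture density cut under 30%, mutant RFP and density less affected; inactive = any of these conditions unmet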; also: one replicate is shown; some compounds called inactive have numbers as strong as hits
Calb FLC: affects C. albicans growth with fluconazole | actives 0.57% (n = 300,000) | growth inhibition, % (concentration not given with the values) | AID 1979 | C. albicans CaCi-2 (fluconazole-resistant clinical isolate) + fluconazole, Alamar Blue growth, 48 h;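 active = most replicates above 75%; inconclusive = exactly half above 75%; inactive = most below 75%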;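 also: all wells also contain fluconazole at 8 µg/ml as a sub-toxic cotreatment; 0% = median of DMSO wells and 100% = median of geldanamycin control wells; wells of about 8 µL received 7.5 nL stock; the first replicate is given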
A1 inh: inhibitors of the anti-apoptotic protein A1, read as caspase activation; MEF A1-2A-BIM cells, Caspase-Glo 3/7 luminescence, 3 h; percent of clofoctol response, vehicle zero; caspase activation, % (test concentration not listed); actives 0.066% (n = 330,000);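 active = over half of replicate activation scores above 10%, or exactly half above 10 with the replicate mean above 10; inconclusive = replicate mean below 10 yet half the replicates above 10; inactive = over half of replicates below 10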;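 also: wells of about 30 µL received 50 nL stock; many hits fall short of the cut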
Beta cell apopt: beta cell apoptosis inhibition. protection from apoptosis, % (test concentration not listed). INS-1E cytokine-induced death, ATP luminescence, 48 h; percent of positive-control rescue, neutral wells zero. actives 0.8% (n = 300,000);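 active = all replicates at 75% or more, or half of them and the mean; inconclusive = half reach 75% but not the mean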;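 also: 0% = cytokine-treated negative control wells and 100% = positive control rescue; higher means more ATP so stronger rescue from cytokine killing; wells of about 40 µL received 100 nL stock; the first replicate is given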
B2AR ag: human beta-2 adrenergic receptor agonism by FAP. Am2.2-beta2AR cells, FAP receptor internalization, flow cytometry; reference of the scale not given here. response, % (no concentration beside the values). P07550. actives 0.43% (n = 340,000). AID 504454;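 active = response above a set limit, near 3 SD of response in nonfluorescent compounds, cut at about 42% in these data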;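 also: stock transfer was 100 nL into about 11 µL; a reference agonist was the positive control; negative values mostly stem from fluorescent compounds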
Target sequence (P07550 whole entry, looked up): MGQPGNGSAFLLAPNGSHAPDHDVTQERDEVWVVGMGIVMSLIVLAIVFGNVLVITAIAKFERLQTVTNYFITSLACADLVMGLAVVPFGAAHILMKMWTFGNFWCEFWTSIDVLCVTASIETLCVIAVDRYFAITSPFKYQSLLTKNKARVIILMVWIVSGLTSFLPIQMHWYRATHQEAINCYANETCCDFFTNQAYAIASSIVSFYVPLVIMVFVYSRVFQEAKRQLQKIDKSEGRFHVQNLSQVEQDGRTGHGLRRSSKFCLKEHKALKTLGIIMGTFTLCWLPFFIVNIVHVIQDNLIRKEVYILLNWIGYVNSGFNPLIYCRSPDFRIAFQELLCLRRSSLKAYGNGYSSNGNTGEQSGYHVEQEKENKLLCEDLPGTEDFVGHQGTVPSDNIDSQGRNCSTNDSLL
ALR H2O2 inh: inhibitors of human sulfhydryl oxidase ALR; P55789; purified ALR, DTT oxidation, H2O2 HRP-luminol luminescence; inhibition, % (no concentration beside the values); actives 3.8% (n = 290,000); AID 485317;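 active = mean and each replicate at 75% or more; inconclusive = only one of the two met; inactive = neither met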;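 also: stock transfer was 7.5 nL into about 7.5 µL; 0% = neutral wells and 100% = wells with inactivated enzyme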
Target sequence (P55789 whole entry, looked up): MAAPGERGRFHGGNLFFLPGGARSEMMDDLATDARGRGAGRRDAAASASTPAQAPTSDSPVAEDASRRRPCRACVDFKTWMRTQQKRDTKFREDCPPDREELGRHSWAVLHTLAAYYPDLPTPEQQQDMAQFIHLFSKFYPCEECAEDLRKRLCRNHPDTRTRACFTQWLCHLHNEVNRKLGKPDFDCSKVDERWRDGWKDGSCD
T cruzi repl: blocks replication of Trypanosoma cruzi. actives 1.4% (n = 300,000). T. cruzi beta-gal in NIH3T3, luminescence, 90 h. AID 1885. inhibition, % (test concentration not listed);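 active = mean inhibition across valid replicates above about 55%, limit read from the data; inconclusive = mean below that limit but half or more replicates reach it; inactive = mean below it, under half of replicates reach it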;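 also: signal also drops with host cell toxicity which is not excluded here; 0% = plate median of DMSO wells and 100% = zero luminescence signal; higher percent means less beta-gal luminescence so fewer parasites; stock transfer was 50 nL into about 50 µL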
rRNA inh HTS OD600: also measured in rRNA inh HTS; calls as there; OD600 change, %; measured here: OD600 growth;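 optical density of the mix in the first replicate; 0 = DMSO median and -100 = no signal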
rRNA inh HTS RFP: further read-out of rRNA inh HTS, marked with its call; RFP signal change, %; measured here: RFP humanized mutant strains;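 first replicate; 0 = DMSO median and -100 = no signal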
* = called active by the depositor; ? = inconclusive; nt = no result given. Not all compounds are listed; rates above refer to the full screens.

SMILES	LANA-H2A inh	rRNA inh HTS	rRNA inh HTS OD600	rRNA inh HTS RFP	Calb FLC	A1 inh	Beta cell apopt	B2AR ag	ALR H2O2 inh	T cruzi repl
Cc1ccc(NC(=O)C2CCCN(S(=O)(=O)c3ccc4[nH]c(=O)ccc4c3)C2)cc1C (stereo unspecified)	-5.4	2	9	0.1	5	-0.9	-4	0	-7	-4
CC1CN(C(=O)COC(=O)c2cc([N+](=O)[O-])ccc2Cl)CC(C)O1 (stereo unspecified)	1.6	5	3	-7.9	3	0.8	0	1	-2	0
COc1ccc(OC)c(NC(=O)CCN2CCN(c3ccccc3OC)CC2)c1	-3.0	1	4	-4.0	0	0.1	-1	-1	23	2
O=C(CN(C(=O)Cn1nnc(-c2cccs2)n1)c1ccc2c(c1)OCCO2)NCc1ccccc1	-3.9	nt	nt	nt	16	0.1	nt	-3	nt	4
Cc1nn(-c2nc3ccccc3n2Cc2ccccc2)c2c1C(=O)CC(C)(C)C2	-1.5	nt	nt	nt	2	-0.5	5	-6	4	nt
CC1=C(C(=O)OCc2ccccc2)C(c2ccccc2[N+](=O)[O-])NC(=O)N1C (stereo unspecified)	-4.1	-3	-13	1.2	15	-0.6	nt	3	18	-20
C/C(=N\Nc1nc2ccccc2[nH]1)c1ccc2c(c1)OCCO2	-3.1	-48*	-33*	-16*	11	-0.6	19	6	99*	57*
COc1ccc(C(=O)NCC2(c3ccccc3)CCCC2)c(OC)c1	-0.6	-50	-70	-6.8	10	1.0	12	-5	20	21
CCc1ccc(CN(C)Cc2nc(Cc3ccc(OC)c(OC)c3)no2)nc1	1.0	8	-8	0.7	14	0.2	-6	5	-7	10
CCOC(=O)c1cc(-c2ccco2)nc2c1c(C)nn2-c1ccccc1	4.8	nt	nt	nt	3	-0.1	-9	-8	14	13
Cc1ccc(N(CC(O)CN(C)C)S(=O)(=O)c2ccccc2)cc1 (stereo unspecified)	-1.5	nt	nt	nt	-3	-0.4	1	-4	nt	7
CSc1nc(-c2ccc(Cl)cc2)nn1C(=O)c1ccccc1	-6.6	-3	-1	-1.0	-5	-0.7	-3	-5	2	-21
CCOC(=O)c1sc(=N)n(-c2ccc(OC)cc2)c1C	-2.0	-2	1	-8.6	18	-1.6	-8	2	0	-6
OCC1(Cc2ccccc2C(F)(F)F)CCN(Cc2ccncc2)CC1	nt	-1	-5	8.5	-26	nt	nt	-9	nt	2
CCCN1CCN(C(=O)c2cn(CC(C)C)c(=O)c3cc(OC)c(OC)cc23)CC1	-1.0	nt	nt	nt	11	0.7	0	6	-6	5
CCc1cccc(C)c1NC(=O)CC1Oc2ccc(C)cc2NC1=O (stereo unspecified)	-5.4	3	2	0.1	-3	-0.4	-1	-3	3	-1
CCN(CC)CCn1c(=S)[nH]c2ncccc2c1=O	-1.4	nt	nt	nt	-10	-0.4	-1	-1	31	1
CNc1cc(F)nc(F)n1	5.5	nt	nt	nt	-6	1.7	3	3	-3	-3
CC1(C(=O)O)CCC(C(=O)Nc2ccc(Cl)c(Cl)c2)C1(C)C (stereo unspecified)	-7.1	-23*	-16*	-7.6*	21	-2.0	-2	12	15	0
CC(=O)c1c(C)nc2ccc(Br)cc2c1C(=O)O	-0.5	4	3	-1.9	7	0.4	nt	-9	-3	-9
O=C(CNc1cccc(S(=O)(=O)N2CCOCC2)c1)N1CCc2ccccc21	nt	-4	-1	-1.0	23	nt	nt	-2	nt	9
CC(=O)N1c2ccc(S(=O)(=O)N3CCCC3)cc2CC1C(=O)Nc1cc(C)cc(C)c1 (stereo unspecified)	-1.4	11	6	2.5	-12	-1.4	nt	1	-2	4
CN(CCN1CCOCC1)Cc1nc(-c2ccc(Cl)cc2)no1	-1.6	6	2	-4.4	-22	-0.2	-8	0	nt	-16
O=C(CN1C(=O)NC2(CCCCCC2)C1=O)c1ccc(Cl)cc1	nt	0	5	-4.1	nt	0.7	4	-10	3	nt
Cc1ccc(CN2C(=O)N/C(=C\c3cccn3-c3cccc(C(=O)O)c3)C2=O)cc1	-1.1	4	0	-1.5	7	0.3	-6	9	29	-4
O=C(CCCSc1ccccc1)Nc1ccc(Cl)c(S(=O)(=O)N2CCOCC2)c1	-1.6	-8	-39	-1.9	nt	-1.6	-3	2	nt	nt
O=C(Cn1ccc([N+](=O)[O-])n1)NCc1nc2ccccc2[nH]1	-3.2	-4	-7	3.1	-3	0.2	-2	-3	3	2
CCN(C(=O)COc1ccc(N(C)S(=O)(=O)c2ccc(NC(C)=O)cc2)cc1)C1CCCCC1	-4.7	-14	-29	-2.1	nt	-1.7	-6	0	-2	nt
CCNC(=S)NNC(=O)c1cccn(Cc2ccc(Cl)cc2Cl)c1=O	-2.0	-9	-9	-0.1	-20	0.2	0	-5	29	-6
Cc1ccc(S(=O)(=O)NC(C)(C)CSc2nncn2C)cc1	2.6	1	1	0.6	-8	0.9	-6	-3	4	-9
O=C(Nc1cccc2ccccc12)c1cccc(F)c1	3.3	7	9	0.0	-5	0.3	-1	-10	-43	-18
CCN(CC)C(=O)NC1CCCCCCC1	-3.3	7	9	-4.2	-38	0.3	-4	-5	-14	2
Cc1cccc(C(=O)NC(=S)Nc2ccccc2C(=O)O)c1	3.7	-4	1	-3.3	-21	1.5	0	2	99*	-8
CCOc1ccc(CN2CCN(C/C=C/c3ccc(OC)cc3)CC2CCO)cc1 (stereo unspecified)	0.3	-4	-1	-1.7	-14	0.3	3	-4	-12	34
CCOc1ccc(NC(=O)c2ccc(CNc3c(NC4CCCCC4)c(=O)c3=O)cc2)cc1	nt	0	10	-5.4	-5	nt	nt	-3	nt	7
C/C(CC(=O)NC12CC3CC(CC(C3)C1)C2)=N\NC(=O)c1cnccn1	-0.2	14	6	-2.0	-14	0.5	-9	0	25	4
CCn1c(COc2cccc(C)c2)nnc1SCC(=O)N1CCCC1	0.4	nt	nt	nt	?	-0.7	0	-1	-3	-8
O=C(NCC1CCOCC1)c1cc(COc2cccc(C(F)(F)F)c2)on1	1.8	-3	2	-1.5	16	-0.6	-4	-1	-1	-11
CCOC(=O)C1CCN(S(=O)(=O)c2csc(C(N)=O)c2)CC1	3.6	14	11	0.5	-12	-0.3	1	-1	0	-17
CC(C)CC(C)NNC(=O)c1cc2ccccc2[nH]1 (stereo unspecified)	-3.7	nt	nt	nt	19	-0.5	-2	-7	5	-16
CN(C(=O)c1ccc(NC(=O)C2CCCN(C(=O)OC(C)(C)C)C2)cc1)C1CCCC1 (stereo unspecified)	-2.7	-31	-29	-14	nt	2.7	0	1	-5	nt
CC(=O)N1c2ccc(S(=O)(=O)N3CCC(C(=O)Nc4ncccc4C)CC3)cc2CC1C (stereo unspecified)	-5.1	-2	-7	-2.0	0	0.1	-1	3	-1	-39
COc1ccnc2c1c(=O)n(Cc1ccc(Cl)cc1)c(=O)n2C	5.6	1	5	1.3	-3	-1.4	6	2	-1	14
CCOc1ccc(NS(=O)(=O)c2ccc(C(=O)N3CCCC(C)C3)cc2)cc1 (stereo unspecified)	0.2	-7	-30	0.5	4	0.5	nt	8	-3	10
COCCn1c(SCC(=O)NC2CCCCC2C)nnc1-c1ccncc1 (stereo unspecified)	-0.5	7	19	-4.6	-4	0.0	0	-9	-1	-8
CCOC(=O)Cc1c(C)nc(N)[nH]c1=O	5.3	14	2	1.4	4	-0.7	-1	2	12	-9
CCCc1nn2c(=O)c(C(c3ccc(C)cc3)c3c(O)nc4sc(CCC)nn4c3=O)c(O)nc2s1	-3.8	nt	nt	nt	7	0.8	-13	-1	5	-5
CCOC(=O)Nc1ccc2c(c1)Nc1ccccc1S2	-0.9	nt	nt	nt	13	0.3	5	4	39	63*
Cc1ccc(CNC(=O)C(NS(=O)(=O)c2ccc3nc(C)sc3c2)C(C)C)cc1 (stereo unspecified)	2.2	7	2	-5.2	-3	0.2	0	-3	93*	4
COC(=O)CNC(=O)COC(=O)/C=C/c1ccccc1[N+](=O)[O-]	-0.7	7	5	-0.1	11	1.6	2	-4	nt	-17
Cn1c(SCC(=O)Nc2cc(S(=O)(=O)N3CCOCC3)ccc2N2CCOCC2)nnc1-c1ccncc1	-0.1	5	6	-7.0	3	0.0	-3	-8	-5	0
Nc1nc(Cl)cc(N2CCC(c3cc(-c4ccc(Cl)cc4Cl)n[nH]3)CC2)n1	-0.6	nt	nt	nt	36	0.4	53	-2	6	26
CNC(=O)NC(=O)CSc1nnc(-c2ccco2)n1Cc1ccccc1	7.5	nt	nt	nt	-1	0.0	-5	-19	-2	-4
Cc1nn(C(C)c2n[nH]c(=S)n2-c2ccc(F)cc2)c(C)c1[N+](=O)[O-] (stereo unspecified)	-1.3	nt	nt	nt	-7	0.4	-3	9	5	-6
COc1cc(CC(=O)OCC(=O)Nc2ccc3c(c2)OCO3)cc(OC)c1OC	0.5	0	-4	0.0	-7	0.0	-2	3	-10	-9
CC(=C/C(=O)O)/C(=C/c1ccccc1)C(=O)O	-1.0	nt	nt	nt	-3	0.1	0	-1	-3	9
CC(=O)c1cccc(OCc2cc(C(=O)N3CCC(N4CCCCC4)CC3)no2)c1	-2.3	16	19	4.1	2	0.5	-9	-2	-23	7
CC(=O)Nc1ccc(NC(=O)C23CC4CC(C2)CC(n2cnc(Br)n2)(C4)C3)cc1	-5.4	19	20	4.1	-7	0.6	-2	1	nt	-12
CN(/N=C/c1ccccc1Cl)c1ncc(Cl)cc1C(F)(F)F	2.4	5	11	-0.2	4	0.6	2	-3	nt	-10
CCN(C(=O)COC(=O)CC1CCCCC1)c1c(N)n(Cc2ccccc2)c(=O)[nH]c1=O	-0.2	5	8	-1.7	nt	0.3	4	-5	1	nt
More entries
SMILES	LANA-H2A inh	rRNA inh HTS	rRNA inh HTS OD600	rRNA inh HTS RFP	Calb FLC	A1 inh	Beta cell apopt	B2AR ag	ALR H2O2 inh	T cruzi repl
COc1cc(C(=O)NCCC(=O)NC2CCCCCCC2)cc(OC)c1OC	4.1	nt	nt	nt	5	0.1	1	-1	-15	1
CCOc1ccc(-n2c(Cc3cc(=O)[nH]c(=O)[nH]3)nnc2SCC(N)=O)cc1	0.6	nt	nt	nt	6	1.2	nt	-5	-32	-14
CC(OC(=O)C1CCC(=O)N1)C(=O)Nc1cc(Cl)cc(Cl)c1 (stereo unspecified)	1.7	nt	nt	nt	-3	0.2	-3	-2	18	-12
Cc1nc(SC(C)C(=O)NCc2ccc3c(c2)OCO3)nc(C)c1C (stereo unspecified)	7.9	5	5	3.4	nt	-1.4	-5	0	0	nt
O=C(Nc1ccc(Cl)cc1N1CCOCC1)C1CCCCC1	-0.1	-10	-17	-8.0	-1	1.2	nt	3	0	7
Cc1ccc(-n2c(Cc3cccs3)nnc2SCC(=O)Nc2ccc(F)c(F)c2)cc1	0.0	9	5	-1.6	3	0.4	-8	-6	-7	31
NC(=NCCc1c[nH]c2ccccc12)NC(=O)c1ccc(F)cc1	-1.2	-33*	3.5*	4.8*	-4	-0.2	-5	0	nt	14
Cc1nn(C)c(C)c1S(=O)(=O)N1CCC(CO)(Cc2ccc(Cl)cc2)CC1	2.6	-22*	-17*	0.1*	13	0.7	-3	10	-3	6
COc1ccc(C/C(=N\O)c2ccc(OC)cc2)cc1	0.2	nt	nt	nt	-11	-0.6	-4	2	4	12
